Compound activity: PubChem BioAssay, several laboratories
Beta apoptosis = blocks beta cell apoptosis. AID 435005. INS-1E cytokine-induced death, ATP luminescence, 48 h; percent of positive-control rescue, neutral wells zero. 300,000 tested, 0.8% active. protection from apoptosis, % (test concentration not listed);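 active = all replicates at 75% or more, or half of them and the mean; inconclusive = half reach 75% but not the mean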;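 also: 0% = cytokine-treated negative control wells and 100% = positive control rescue; higher means more ATP so stronger rescue from cytokine killing; wells of about 40 µL received 100 nL stock; the first replicate is given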
A1 inh = inhibitors of the anti-apoptotic protein A1, read as caspase activation | MEF A1-2A-BIM cells, Caspase-Glo 3/7 luminescence, 3 h; percent of clofoctol response, vehicle zero | caspase activation, % (no concentration beside the values) | 330,000 tested, 0.066% active | AID 2462;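 active = over half of replicate activation scores above 10%, or exactly half above 10 with the replicate mean above 10; inconclusive = replicate mean below 10 yet half the replicates above 10; inactive = over half of replicates below 10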;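 also: wells of about 30 µL received 50 nL stock; many hits fall short of the cut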
Beta2AR agonist = agonists of human beta-2 adrenergic receptor inducing internalization. Am2.2-beta2AR cells, FAP receptor internalization, flow cytometry; reference of the scale not given here. response, % (test concentration not listed). 340,000 tested, 0.43% active;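 active = response above a set limit, near 3 SD of response in nonfluorescent compounds, cut at about 42% in these data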;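 also: stock transfer was 100 nL into about 11 µL; a reference agonist was the positive control; negative values mostly stem from fluorescent compounds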
Target sequence (P07550 whole entry, looked up): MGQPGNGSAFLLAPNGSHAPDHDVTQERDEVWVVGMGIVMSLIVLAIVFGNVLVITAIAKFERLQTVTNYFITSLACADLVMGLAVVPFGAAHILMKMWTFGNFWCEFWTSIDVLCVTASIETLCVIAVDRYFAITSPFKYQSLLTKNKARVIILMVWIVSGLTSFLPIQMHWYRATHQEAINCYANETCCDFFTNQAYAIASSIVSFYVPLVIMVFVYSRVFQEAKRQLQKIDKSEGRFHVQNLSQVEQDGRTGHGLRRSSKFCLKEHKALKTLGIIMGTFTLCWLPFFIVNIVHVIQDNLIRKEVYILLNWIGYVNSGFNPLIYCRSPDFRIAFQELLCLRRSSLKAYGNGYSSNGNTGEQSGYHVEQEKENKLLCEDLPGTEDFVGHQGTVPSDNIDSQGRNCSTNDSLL
LANA-H2B inh = blocks KSHV LANA binding to histone H2A/H2B; cell-free LANA-H2A/H2B peptide, fluorescence polarization; inhibition, % (no concentration beside the values); 320,000 tested, 0.6% active; AID 2629; in the data active = inhibition mostly above about 10%, no sharp cut-off; inactive = mostly below about 6.7%;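 also: stock transfer was 7.5 nL into about 10 µL; 0% = median of vehicle wells and 100% = median of positive control wells; one replicate is shown; the record names a cut of 25% in any replicate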
Calb FLC = affects C. albicans growth with fluconazole. C. albicans CaCi-2 (fluconazole-resistant clinical isolate) + fluconazole, Alamar Blue growth, 48 h. growth inhibition, % (no concentration beside the values). 300,000 tested, 0.57% active. AID 1979;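 active = most replicates above 75%; inconclusive = exactly half above 75%; inactive = most below 75%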;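 also: all wells also contain fluconazole at 8 µg/ml as a sub-toxic cotreatment; 0% = median of DMSO wells and 100% = median of geldanamycin control wells; wells of about 8 µL received 7.5 nL stock; the first replicate is given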
RanGTP-Impb inh = inhibitors of RanGTP-importin-beta interaction, primary screen, biochemical, FRET, CFP-Ran, YFP-importin-beta, homogeneous. cell-free CFP-Ran/YFP-importin-beta FRET ratio. inhibition, % (no concentration beside the values). 300,000 tested, 1.1% active. AID 2216;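 active = most replicates above 15%; inconclusive = exactly half above 15%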;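 also: 0% = DMSO wells and 100% = Ran loaded with GDP instead of GTP; wells of about 40 µL received 100 nL stock; the first replicate is given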
T cruzi inh = blocks replication of Trypanosoma cruzi | T. cruzi beta-gal in NIH3T3, luminescence, 90 h | inhibition, % (no concentration beside the values) | 300,000 tested, 1.4% active;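 active = mean inhibition across valid replicates above about 55%, limit read from the data; inconclusive = mean below that limit but half or more replicates reach it; inactive = mean below it, under half of replicates reach it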;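 also: signal also drops with host cell toxicity which is not excluded here; 0% = plate median of DMSO wells and 100% = zero luminescence signal; higher percent means less beta-gal luminescence so fewer parasites; stock transfer was 50 nL into about 50 µL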
UCH37 inh = blocks the human deubiquitinase UCH37. purified proteasome/UCH37, Ub-AMC cleavage fluorescence. Q9Y5K5. inhibition, % (test concentration not listed). 330,000 tested, 0.33% active;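 active = mean of two replicates above 20%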;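 also: 0% = compound-free wells with enzyme and 100% = wells lacking proteasome; stock transfer was 100 nL into about 20 µL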
Target sequence (Q9Y5K5 whole entry, looked up): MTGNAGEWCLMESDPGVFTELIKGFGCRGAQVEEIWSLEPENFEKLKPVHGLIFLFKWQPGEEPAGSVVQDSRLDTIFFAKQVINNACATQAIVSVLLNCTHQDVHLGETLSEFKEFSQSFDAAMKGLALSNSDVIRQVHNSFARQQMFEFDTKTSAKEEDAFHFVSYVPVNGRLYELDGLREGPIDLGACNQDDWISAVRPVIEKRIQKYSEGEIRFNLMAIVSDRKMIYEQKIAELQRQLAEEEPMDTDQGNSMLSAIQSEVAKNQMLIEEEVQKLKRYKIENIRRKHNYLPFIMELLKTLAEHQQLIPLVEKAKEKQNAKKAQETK
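system = Proteasome-associated human UCH37 deubiquitinase | amount = 0.15 nM proteasome as dispensed | medium = pH 7.4 Tris-HCl (50 mM) with ovalbumin, ATP-MgCl2, DTT | incubation = 30 min preincubation with enzyme, 25 min cleavage at room temperature | detection = AMC fluorescence 355/460 nm | read-out basis = percent inhibition | controls = no-proteasome and no-compound wells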
Active calls of the source: *.

For O=C(c1ccc(Cl)cc1Cl)c1ncc(C(F)(F)F)cc1Cl the results were Beta apoptosis -2, A1 inh 1.2, Beta2AR agonist -4, LANA-H2B inh -0.1, Calb FLC 2, RanGTP-Impb inh -3.7, T cruzi inh 4 and UCH37 inh 2.2.
`COC(=O)c1sccc1-n1cccc1C(=O)C(=O)N1CCCC1` gave Beta apoptosis -9, A1 inh -0.6, Beta2AR agonist 10, LANA-H2B inh -2.7, Calb FLC 4, RanGTP-Impb inh -4.0 and UCH37 inh 3.8.
For CC(C)Sc1nc2ccccc2[nH]1 the results were Beta apoptosis -3, A1 inh -0.3, Beta2AR agonist -1, LANA-H2B inh 0.0, Calb FLC -3, RanGTP-Impb inh -2.3, T cruzi inh -11 and UCH37 inh 2.8.
`Cc1cc(-c2nnc3n2N=C(c2ccccc2)CS3)n[nH]1` gave Beta apoptosis -3, A1 inh -1.6, Beta2AR agonist -13, LANA-H2B inh 3.8, Calb FLC 5, RanGTP-Impb inh 1.8, T cruzi inh -7 and UCH37 inh 0.2.
For COc1cc2nc(N(CCN(C)C)C(=O)c3ccc4ccccc4c3)sc2cc1OC the results were Beta apoptosis -6, A1 inh 0.5, Beta2AR agonist 9, LANA-H2B inh 1.3, Calb FLC 10, RanGTP-Impb inh -2.4, T cruzi inh 32 and UCH37 inh 7.4.
COc1ccc(-n2cc(CNCCCN3CCCC3=O)c(-c3ccccc3Cl)n2)cc1 was read as Beta apoptosis 1, A1 inh 1.0, Beta2AR agonist 7, LANA-H2B inh -1.3, Calb FLC 11, RanGTP-Impb inh 1.2, T cruzi inh 16 and UCH37 inh 1.9.
O=C(/C=C/Nc1cccc(F)c1)c1ccco1 was read as Beta apoptosis 1, A1 inh -2.9, Beta2AR agonist -7, LANA-H2B inh 4.9, Calb FLC -9, RanGTP-Impb inh -0.8, T cruzi inh -5 and UCH37 inh 1.6.
`Cn1c(SCC(=O)Nc2ccc(C(=O)O)cc2)nc2scc(-c3ccccc3Cl)c2c1=O` gave Beta apoptosis 6, A1 inh 2.1, Beta2AR agonist 0, LANA-H2B inh -0.4 and UCH37 inh 0.7.
CCOc1ccccc1OCCCC(=O)NC1CCCc2ccccc21 (stereo not given) was read as Beta apoptosis 0, A1 inh -0.3, Beta2AR agonist 6, LANA-H2B inh -2.2, Calb FLC -1, RanGTP-Impb inh -0.4, T cruzi inh -5 and UCH37 inh 2.5.
`COc1ccc(C(=O)C(CO)Oc2ccccc2OC)cc1OC` (stereo not given) gave Beta apoptosis -1, A1 inh 1.3, Beta2AR agonist 13, LANA-H2B inh 5.1, Calb FLC 24, RanGTP-Impb inh 4.2, T cruzi inh -10 and UCH37 inh 3.1.
CCOC(=O)/C=C1\SCC(=O)N1CC(=O)Nc1cc(S(=O)(=O)N(C)C)ccc1C was read as Beta apoptosis -3, A1 inh 0.8, Beta2AR agonist -5, LANA-H2B inh 8.7 and UCH37 inh -0.7.
CCc1ccc(CN(C)C(=O)CCc2nnc(CCc3ccccc3OC)o2)nc1 was read as Beta apoptosis -6, A1 inh inconclusive, Beta2AR agonist -3, LANA-H2B inh 7.2, Calb FLC -2, RanGTP-Impb inh 2.8, T cruzi inh 2 and UCH37 inh 4.1.
Cc1ccc2c(CN3CCCCC3C)cc(=O)oc2c1 (stereo not given) was read as Beta apoptosis 7, A1 inh 1.9, Beta2AR agonist 9, LANA-H2B inh -5.1, Calb FLC 11, RanGTP-Impb inh 4.0, T cruzi inh -9 and UCH37 inh 0.0.
Cn1c(=O)c2c(nc(NCCCO)n2C/C=C/c2ccccc2)n(C)c1=O was read as Beta apoptosis 1, A1 inh -0.7, Beta2AR agonist 2, LANA-H2B inh 0.9, Calb FLC -3, RanGTP-Impb inh -0.6, T cruzi inh -6 and UCH37 inh 1.7.
`CC1CC1C(=O)N1CCN(S(=O)(=O)c2cc(C(F)(F)F)cc(C(F)(F)F)c2)CC1` (stereo not given) gave Beta apoptosis 3, A1 inh -0.1, Beta2AR agonist -6, LANA-H2B inh 3.9 and UCH37 inh -0.4.
For CC(NC(=O)COC(=O)c1cccnc1Cl)C12CC3CC(CC(C3)C1)C2 (stereo not given) the results were Beta apoptosis -4, A1 inh 1.1, Beta2AR agonist -5 and LANA-H2B inh 4.9.
For COc1cccc(NC(=O)CCC(=O)Nc2cccc(OC)c2)c1 the results were Beta apoptosis -12, A1 inh 1.2, Beta2AR agonist -2, LANA-H2B inh -1.5, Calb FLC -2, RanGTP-Impb inh -2.8, T cruzi inh -25 and UCH37 inh 1.4.
`CCc1ccccc1NC(=O)c1cc(=O)c2ccccc2o1` gave Beta apoptosis 2, A1 inh -1.3, Beta2AR agonist 3, LANA-H2B inh 0.6, Calb FLC 6, RanGTP-Impb inh -2.4, T cruzi inh -4 and UCH37 inh 2.2.
Cc1cccc(NC(=O)c2cnc3n(c2=O)CCS3)c1 was read as Beta apoptosis 2, A1 inh 0.1, Beta2AR agonist 0, LANA-H2B inh 0.1, Calb FLC -17, RanGTP-Impb inh inconclusive and UCH37 inh -33.
`COc1ccc(-c2cc(C3CC3)nc(N)c2C#N)cc1` gave Beta apoptosis 5, A1 inh 0.7, Beta2AR agonist 4, LANA-H2B inh 3.3, Calb FLC 0, RanGTP-Impb inh 1.2, T cruzi inh -7 and UCH37 inh -24.
Screening COc1cc(C2C3C(=O)N(c4ccc(F)cc4)C(=O)C3ON2c2ccccc2)ccc1O (stereo not given) returned Beta apoptosis -1, A1 inh 0.5, Beta2AR agonist 8, LANA-H2B inh 0.8, Calb FLC 6, RanGTP-Impb inh 1.7, T cruzi inh 3 and UCH37 inh 2.0.
Screening COc1cc([N+](=O)[O-])ccc1N1C(=O)C2C3C=CC(C4CC34)C2C1=O (stereo not given) returned Beta apoptosis -6, A1 inh 0.5, Beta2AR agonist -1, LANA-H2B inh -25, Calb FLC -3, RanGTP-Impb inh -3.8, T cruzi inh 4 and UCH37 inh 6.4.
Screening CN(C)S(=O)(=O)c1ccc(C(=O)NCc2nc3ccccc3s2)cc1 returned Beta apoptosis -2, A1 inh 1.1, Beta2AR agonist -2, LANA-H2B inh 15*, Calb FLC 2, RanGTP-Impb inh -0.4, T cruzi inh 8 and UCH37 inh 3.4.
`O=C1NC2(CCCCC2)N(C(=O)c2ccccc2)C2=C1CCCC2` gave Beta apoptosis -2, A1 inh 0.6, Beta2AR agonist 1, LANA-H2B inh -1.3, Calb FLC -11, RanGTP-Impb inh 2.2, T cruzi inh 5 and UCH37 inh 4.3.

Grouped by structure: those above with four or more nitrogen atoms (4)
`Cc1cc(-c2nnc3n2N=C(c2ccccc2)CS3)n[nH]1` gave Beta apoptosis -3, A1 inh -1.6, Beta2AR agonist -13, LANA-H2B inh 3.8, Calb FLC 5, RanGTP-Impb inh 1.8, T cruzi inh -7 and UCH37 inh 0.2.
COc1ccc(-n2cc(CNCCCN3CCCC3=O)c(-c3ccccc3Cl)n2)cc1 was read as Beta apoptosis 1, A1 inh 1.0, Beta2AR agonist 7, LANA-H2B inh -1.3, Calb FLC 11, RanGTP-Impb inh 1.2, T cruzi inh 16 and UCH37 inh 1.9.
CCc1ccc(CN(C)C(=O)CCc2nnc(CCc3ccccc3OC)o2)nc1 was read as Beta apoptosis -6, A1 inh inconclusive, Beta2AR agonist -3, LANA-H2B inh 7.2, Calb FLC -2, RanGTP-Impb inh 2.8, T cruzi inh 2 and UCH37 inh 4.1.
Cn1c(=O)c2c(nc(NCCCO)n2C/C=C/c2ccccc2)n(C)c1=O was read as Beta apoptosis 1, A1 inh -0.7, Beta2AR agonist 2, LANA-H2B inh 0.9, Calb FLC -3, RanGTP-Impb inh -0.6, T cruzi inh -6 and UCH37 inh 1.7.

Next results follow:
COC(=O)COc1ccc(S(=O)(=O)NCC2CCCO2)cc1Cl (stereo not given) was read as Beta apoptosis -8, A1 inh 0.2, Beta2AR agonist 3, LANA-H2B inh 2.3, Calb FLC 10, RanGTP-Impb inh 0.3, T cruzi inh 8 and UCH37 inh 2.7.
`COC(=O)c1cc(C(=O)N2CCN(C(=O)c3ccco3)CC2)cc([N+](=O)[O-])c1` gave Beta apoptosis -4, A1 inh 0.2, Beta2AR agonist 2, LANA-H2B inh 3.9, Calb FLC -16, RanGTP-Impb inh 2.2, T cruzi inh -14 and UCH37 inh -2.3.
c1cc2c(cc1NC1CCCCCC1)OCO2 was read as Beta apoptosis 5, A1 inh 0.1, Beta2AR agonist -10, LANA-H2B inh -0.7, Calb FLC -21, RanGTP-Impb inh 2.8, T cruzi inh 16 and UCH37 inh 0.8.
`CCN(CC)C(=O)C(=O)c1cccn1-c1c(Cl)cccc1C#N` gave Beta apoptosis 0, A1 inh 0.8, Beta2AR agonist -4, LANA-H2B inh -1.3, Calb FLC -4, RanGTP-Impb inh -1.4, T cruzi inh -24 and UCH37 inh 4.5.
Screening COc1ccc2c(c1OC)C(=O)OC2CC(=O)c1ccc(O)c(O)c1 (stereo not given) returned Beta apoptosis -5, A1 inh 0.5, Beta2AR agonist -9, LANA-H2B inh -0.5, Calb FLC -2, RanGTP-Impb inh -1.0, T cruzi inh -8 and UCH37 inh 4.9.
For Cc1nn(-c2ccccc2)c(N)c1Sc1ccc([N+](=O)[O-])cc1 the results were Beta apoptosis -12, A1 inh -0.1, Beta2AR agonist -2, LANA-H2B inh 1.0, Calb FLC 4, RanGTP-Impb inh -2.4, T cruzi inh -13 and UCH37 inh 7.1.
Screening O=c1oc2ccccc2nc1/C=C(O)/C=C\c1ccccc1 returned Beta apoptosis -10, A1 inh 0.2, Beta2AR agonist 10, LANA-H2B inh 3.0, Calb FLC 24, RanGTP-Impb inh 2.2 and T cruzi inh -18.
C=C1CN(Cc2ccccc2)S(=O)(=O)c2ccccc21 was read as A1 inh 0.2, Beta2AR agonist -8, LANA-H2B inh 7.3, Calb FLC 12, RanGTP-Impb inh 3.3, T cruzi inh -14 and UCH37 inh 3.6.
CC(=O)C(Cc1ccccc1)NC(=O)COc1ccc2c(c1)OCO2 (stereo not given) was read as Beta apoptosis -13, A1 inh -0.6, Beta2AR agonist -5, LANA-H2B inh -1.0 and UCH37 inh 0.1.
Screening O=C(NC1(C(F)(F)F)NC(=O)N(Cc2ccccc2)C1=O)c1cccnc1 (stereo not given) returned Beta apoptosis -5, A1 inh -0.4, Beta2AR agonist -2, LANA-H2B inh 14, Calb FLC -2, RanGTP-Impb inh 3.4, T cruzi inh -6 and UCH37 inh 4.2.
`COc1ccc(N2C(=O)CC(Nc3ccc(F)cc3)C2=O)c([N+](=O)[O-])c1` (stereo not given) gave Beta apoptosis -6, A1 inh 0.2, Beta2AR agonist -2, LANA-H2B inh -2.1, Calb FLC 20, RanGTP-Impb inh -2.8, T cruzi inh -11 and UCH37 inh 3.1.
`COc1ccc(CNC(=O)CSc2ncn[nH]2)cc1OC` gave Beta apoptosis -5, A1 inh 0.0, Beta2AR agonist 10, LANA-H2B inh -7.8, Calb FLC -3, RanGTP-Impb inh 0.3, T cruzi inh -5 and UCH37 inh 1.3.
